YopH inh: blocks Yersinia enterocolitica YopH tyrosine phosphatase; fluorescence Ex485/Em525; inhibition, %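 (about 10 µM by stock and volumes)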; 140,000 tested, 0.16% active; AID 898;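 active = inhibition of 50% or more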;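 note: controls were vehicle for no effect and minimum signal wells for full effect; inactives centre near -20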
Mtb bLac sens: beta-lactam sensitization of Mtb H37Rv. M. tuberculosis H37Rv growth with meropenem, percent inhibition; hits of this screen are not shown here. inhibition, % at 25 µM. 330,000 tested, 0.27% active. AID 434955;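 active = about 74% or more and at least 40 points above the plate without the antibiotic, then above 30% in a dose series; inconclusive = first-round hits that could not be retested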;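 note: growth measured after seven days incubation then overnight dye step; 0% = bacteria only wells and 100% = bacteria with antibiotic; twin plates without the antibiotic show which effects depend on it; some results filed as inactive read as strong as hits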
RecA intein inh: inhibitors of M. tuberculosis RecA intein splicing | 290,000 tested, 0.75% active | cell-free RecA intein splicing, fluorescence | inhibition, %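 (about 9 µM by stock and volumes)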 | AID 2221; in the data active = inhibition above about 30%; inconclusive = no clear call, values can overlap the other calls;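 note: 0% = vehicle wells and 100% = reference inhibitor control wells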
Target sequence (P9WHJ3 whole entry, looked up): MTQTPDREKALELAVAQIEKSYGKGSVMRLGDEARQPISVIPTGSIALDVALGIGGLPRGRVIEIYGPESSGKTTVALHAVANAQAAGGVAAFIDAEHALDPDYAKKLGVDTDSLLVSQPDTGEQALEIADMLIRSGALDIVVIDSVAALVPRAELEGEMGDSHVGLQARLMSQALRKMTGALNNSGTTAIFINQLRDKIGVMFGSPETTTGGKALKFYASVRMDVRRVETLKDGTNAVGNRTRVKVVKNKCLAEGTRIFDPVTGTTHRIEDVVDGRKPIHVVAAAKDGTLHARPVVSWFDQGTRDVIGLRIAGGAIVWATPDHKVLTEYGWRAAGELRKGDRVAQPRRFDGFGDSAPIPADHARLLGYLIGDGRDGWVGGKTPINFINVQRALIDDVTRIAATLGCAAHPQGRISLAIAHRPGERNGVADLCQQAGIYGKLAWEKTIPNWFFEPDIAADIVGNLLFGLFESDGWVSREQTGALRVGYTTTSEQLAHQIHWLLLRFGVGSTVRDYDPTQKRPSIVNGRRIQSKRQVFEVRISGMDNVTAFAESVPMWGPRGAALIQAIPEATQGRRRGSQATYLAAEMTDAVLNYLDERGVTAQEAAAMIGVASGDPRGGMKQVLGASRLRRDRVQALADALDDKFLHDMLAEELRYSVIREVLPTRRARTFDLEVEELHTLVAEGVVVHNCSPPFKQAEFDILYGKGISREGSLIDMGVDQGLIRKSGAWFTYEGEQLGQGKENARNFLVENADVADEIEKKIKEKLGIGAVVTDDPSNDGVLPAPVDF
Arbovirus anti: blocks arbovirus infection | 200,000 tested, 0.37% active | arbovirus infection cell-based antiviral screen | inhibition, % at 10 µM | AID 1251;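 active = inhibition from about 30%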;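 note: bluetongue infection of BSR cells; cell survival read as ATP light after 72 h; 0% = infected wells without compound and 100% = uninfected wells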
Mtb growth: M. tuberculosis H37Rv growth inhibitors, H37Rv strain (AID 1626); M. tuberculosis H37Rv growth inhibition; higher % means a stronger effect; inhibition, % at 10 µM; hits with a dose series show IC50 in µM; 220,000 tested, 0.95% active;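 active = confirmed in a dose series; inconclusive = inhibition above 80% but not taken into the dose series; inactive = below 80% or under 30% at every dose of the series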;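 note: bacteria incubated seven days before Alamar blue readout; 0% = bacteria only wells and 100% = bacteria with antibiotic wells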
Arbovirus anti repeat: also measured in Arbovirus anti; calls as there; inhibition, %; measured here: 10K subset replicate screen; many hits read low in the repeat;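 first of two repeat runs on a subset; 0% = infected and 100% = uninfected wells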
* marks the source's active call; other numbers are inactive results; ? = inconclusive; / = no result given.

SMILES	YopH inh	Mtb bLac sens	RecA intein inh	Arbovirus anti	Mtb growth	others
CC(C)n1c(CN2CCN(C)CC2)nc2c1c(=O)n(C)c(=O)n2C	13	-10	-1.2	12	/	Arbovirus anti repeat=-2
COc1ccc(C(=O)Nc2nc(CC(=O)NCc3ccc(F)cc3)cs2)cc1	/	8	-1.1	/	/
CC1(C)Cc2nc3oc4c(NCCCN5CCOCC5)ncnc4c3cc2CO1	/	10	0.2	/	16%
Cc1cccn2c(=O)c3cc(C(=O)N4COCC4(C)C)n(Cc4ccccc4)c3nc12	/	2	-1.4	/	/
Cc1cc(C(C)(C)C)ccc1OCCCCN1CCCC1	-20	-2	0.4	-2	7%
C/C(=N\OCC(=O)Nc1ccccc1C(C)(C)C)c1ccc2c(c1)OCCO2	2	11	4.8	5	1%
O=[N+]([O-])c1cc2c(cc1/C=N/n1c(-c3ccccn3)n[nH]c1=S)OCO2	0	-5	-0.1	2	4%
Cn1c(=O)c2ncn(CC(=O)Nc3ccc(N4CCOCC4)cc3)c2n(C)c1=O	-2	/	-0.6	4	2%
Cn1cnnc1SCC(=O)Nc1ccc2nc(SCc3ccccc3)sc2c1	-24	85	19	8	7%
O=C1CCC(C(=O)N2CCN(c3ccccc3)CC2)CN1CC1CCCCC1 (configuration not stated)	/	-7	-1.4	/	/
Cc1ccc(/C=N\NC(=O)/C(=C\Nc2nccc(C)n2)NC(=O)c2ccccc2)cc1	/	-3	2.2	/	/
O=C(NCC1(c2ccccc2)CCCC1)c1ccc(Br)cc1	-27	25	2.1	-2	5%
CCCNC(=O)c1ccc(N2CCC3(CC2)CC(c2cccc(Br)c2)=NO3)c(NC(=O)c2ccc(Cl)c([N+](=O)[O-])c2)c1	/	0	0.4	/	/
CC(C)(C)c1cc(C(=O)NNC(=O)c2ccc(Cl)cc2)no1	/	89	-2.7	/	3%
COc1cc(CN2CCC(Cc3ccccc3)CC2)cc(OC)c1OC	/	-8	-0.4	/	/
CCOC(=O)C1=C(O)/C(=C/c2ccc(CNC(=O)C(=O)Nc3ccc(C)cc3)o2)N=C1C	-17	3	-1.7	-20	0%
COc1ccc(-n2cc(CNCc3cccnc3)c(-c3cccc(F)c3)n2)cc1	/	33	0.7	-9	10%
Cc1ccc(-c2nnn(CC(=O)N(c3cnc4ccccc4c3)C(C(=O)NC3CCCC3)c3ccncc3)n2)o1 (configuration not stated)	/	4	-1.3	10	-3%
CC(C)CC(Nc1ncnc2scc(-c3ccccc3)c12)C(=O)O (configuration not stated)	/	1	-4.6	/	/
CCOC(=O)N1CCN(S(=O)(=O)N2CCCC(C(=O)NCc3cccc(OC)c3)C2)CC1 (configuration not stated)	/	4	1.5	/	/
CCC(=O)OCC(=O)Nc1cc(C)c(C)cc1[N+](=O)[O-]	-2	11	-2.3	-4	10%
Cc1ccc(S(=O)(=O)/C(C#N)=C/c2c(N3CC(C)OC(C)C3)nc3ccccn3c2=O)cc1 (configuration not stated)	-87	4	2.7	3	2%
COc1ccc2oc3ccccc3c(=O)c2c1	/	-2	-16	/	-11%
O=S(=O)(Nc1ncccn1)c1ccc(NC(=S)NCc2cccnc2)cc1	/	1	0.6	3	-1%
O=C(CN(c1ccccc1)S(=O)(=O)c1ccccc1)Nc1ccc(F)cc1	/	5	-1.8	/	/

The closing seven records of the part before open the next one:
SMILES	YopH inh	Mtb bLac sens	RecA intein inh	Arbovirus anti	Mtb growth	others
CC(C)CC(Nc1ncnc2scc(-c3ccccc3)c12)C(=O)O (configuration not stated)	/	1	-4.6	/	/
CCOC(=O)N1CCN(S(=O)(=O)N2CCCC(C(=O)NCc3cccc(OC)c3)C2)CC1 (configuration not stated)	/	4	1.5	/	/
CCC(=O)OCC(=O)Nc1cc(C)c(C)cc1[N+](=O)[O-]	-2	11	-2.3	-4	10%
Cc1ccc(S(=O)(=O)/C(C#N)=C/c2c(N3CC(C)OC(C)C3)nc3ccccn3c2=O)cc1 (configuration not stated)	-87	4	2.7	3	2%
COc1ccc2oc3ccccc3c(=O)c2c1	/	-2	-16	/	-11%
O=S(=O)(Nc1ncccn1)c1ccc(NC(=S)NCc2cccnc2)cc1	/	1	0.6	3	-1%
O=C(CN(c1ccccc1)S(=O)(=O)c1ccccc1)Nc1ccc(F)cc1	/	5	-1.8	/	/
CCCCN(C(=O)Nc1ccc(OCC)cc1)C1CCN(C(C)=O)CC1	9	51	/	6	59%
CCN1CCN(CC(O)COCCOc2ccc(Br)cc2)CC1 (configuration not stated)	-14	0	1.2	-5	4%
N#CCCn1cc(/C=N/O)c(-c2ccccc2)n1	-22	-3	/	4	-3%
O=C(c1cccnc1)C1CCCN(Cc2nc(Cc3ccccc3)no2)C1 (configuration not stated)	/	-5	1.2	-4	3%
COc1ccc(NC(=O)COc2ccccc2Cc2ccccc2)cc1S(N)(=O)=O	/	2	0.6	/	/
CCCCCCCN1C(Nc2ccccc2)=NC[C@@H]1CC(C)C	/	27	3.6	/	/
CC(=O)c1cccc(CN2CCC(C(=O)Nc3cccc(-c4ccn[nH]4)c3)CC2)c1	/	-7	-0.4	/	/
O=C1NC2(CCCC2)Oc2ccccc21	/	8	-0.3	-1	1%
O=C(CN1C(=O)CC(c2ccccc2)Sc2ccccc21)NCC1CCCO1 (configuration not stated)	/	-4	-0.4	7	1%
Cc1nc(Nc2ccc(S(=O)(=O)N3CCCC3)cc2)c2nnn(Cc3ccccc3)c2n1	-18	13	1.2	-12	-3%
Cc1cccc(Nc2nc(N)c([N+](=O)[O-])c(N3CCCC(C)C3)n2)c1 (configuration not stated)	-14	37	6.1	-38	23%
COc1ccc(CCN2CC(C(=O)NCc3ccco3)CC2=O)cc1OC (configuration not stated)	-9	2	9.2	0	-5%
Cc1ccc(S(=O)(=O)N=S(CCO)CCO)cc1	-25	7	-2.8	3	0%
Cc1cc(NC(=O)c2cccc(COc3ccc(Br)cc3)c2)no1	-22	2	1.3	17	13%
COc1ccc(Nc2nc3c(c(=O)n(C)c(=O)n3C)n2CCO)cc1	-15	-8	-4.0	-4	4%
NC(=O)c1cc(-c2ccncc2)nc2ccc(Cl)cc12	/	-7	5.4	-6	-1%
COC(=O)C1=C(c2cc3ccccc3s2)C[C@@H]2CC[C@H]1N2C(=O)NCC1CC1	/	-6	1.7	/	-2%
COc1ccc(OC)c(NC(=O)Nc2nnc(N3CCC(C)CC3)s2)c1	-1	1	0.9	0	/	Arbovirus anti repeat=7
Cc1c(NC(=O)c2cccc(NS(C)(=O)=O)c2)c(=O)n(-c2ccccc2)n1C	/	0	-0.9	/	-5%
CCC1=NC(c2ccc(OC)cc2OC)N(O)C1(C)C (configuration not stated)	-16	-1	-3.2	-2	1%
Cn1c(SCC(=O)c2ccccc2F)nnc1C1CC1	-46	-2	1.5	12	3%
COc1cc(CNc2ncnc3c2[nH]c2ccc(C)cc23)cc(OC)c1	/	85	-0.3	/	8%
Nn1c(SCC(=O)Nc2ccc3c(c2)OCO3)nnc1C(F)(F)F	/	-1	-4.0	1	-6%
COc1ccc(N/N=C(/C(N)=O)C2=NC(C)(C)Cc3ccccc32)cc1	-18	63	10	-19	42%
CN(C)C(=O)/C(=C/c1cn(-c2ccccc2)nc1-c1cccc([N+](=O)[O-])c1)NC(=O)c1ccccc1	-22	3	-0.9	5	-2%

3 entries picked at random from those above, as already listed:
SMILES	YopH inh	Mtb bLac sens	RecA intein inh	Arbovirus anti	Mtb growth	others
NC(=O)c1cc(-c2ccncc2)nc2ccc(Cl)cc12	/	-7	5.4	-6	-1%
COc1ccc(Nc2nc3c(c(=O)n(C)c(=O)n3C)n2CCO)cc1	-15	-8	-4.0	-4	4%
Nn1c(SCC(=O)Nc2ccc3c(c2)OCO3)nnc1C(F)(F)F	/	-1	-4.0	1	-6%

More records.
SMILES	YopH inh	Mtb bLac sens	RecA intein inh	Arbovirus anti	Mtb growth	others
Cc1c(C(=O)NC(C)C2CC3CCC2C3)cccc1[N+](=O)[O-] (configuration not stated)	/	5	2.6	/	/
O=C(NCc1cccs1)c1cccc(S(=O)(=O)N2CCCCC2)c1	-17	-4	0.2	4	-1%
CCN(CC)C(=O)/C(=C\c1ccc(Br)cc1)NC(=O)c1ccccc1OC	4	5	5.0	-5	4%
CC(=NC1CCN(Cc2ccccc2)CC1)c1c(O)[nH]c(=O)[nH]c1=O	-28	-34	0.0	-1	-8%
COc1ccc(-n2c(C)nc3c(cnn3-c3ccccc3)c2=O)cc1	-45	-6	-1.8	-20	3%
CC1CCCN(CCCNC(=O)C2CCN(S(=O)(=O)N3CCC4(CC3)OCCO4)CC2)C1 (configuration not stated)	/	-6	0.5	/	/
CCc1cc2c(=O)n(N)c(CCC(=O)O)nc2s1	-26	-1	-4.6	5	-4%	Arbovirus anti repeat=0
COc1ccc(N(CC(=O)N2CCc3ccccc3C2)S(=O)(=O)c2ccccc2)cc1	/	2	5.4	-8	3%
CCC(=O)N1c2ccc(S(=O)(=O)N3CCCCC3)cc2CC1C (configuration not stated)	/	-12	-1.1	/	/
Cc1ccc2ncnc(Nc3ccccc3)c2c1	/	3	-6.3	21	-2%
Cc1csc(SCC(=O)Nc2cc(S(=O)(=O)N3CCOCC3)ccc2N2CCOCC2)n1	/	5	0.6	/	0%
COc1ccccc1N/C=C(\C#N)c1nc2ccccc2[nH]1	/	8	-0.2	-6	2%
COc1ccccc1C1CCN(c2ccc([N+](=O)[O-])c(OC)c2)CC1	/	-7	8.7	/	-12%
CCn1cc(/C=N/NC(=O)c2cc3c(ccc4ccccc43)o2)c2ccccc21	-26	91	1.0	-7	?
Cc1ccc(S(=O)(=O)NC(C)(C)CN2CCC(Cc3ccccc3)CC2)cc1	/	18	-4.3	/	69%
O=C(N=Nc1c(O)[nH]c(=O)[nH]c1=O)C1COc2ccccc2O1 (configuration not stated)	/	5	1.0	-3	-11%
C#Cc1ccc([C@@H]2C=C(C(=O)OCC=C)O[C@H](OCC)[C@H]2CCCO)cc1	/	7	3.6	4	/
COc1ccc(S(=O)(=O)N2CCOCC2)cc1NC(=O)Cc1ccccc1Cl	-11	-1	-1.9	-9	3%
Cc1cccc(OCC(=O)N2CCN(C(=O)c3ccco3)CC2)c1	/	-3	0.9	2	-16%
CCOC(=O)c1cc(NC(=O)C2CCCO2)cc(C(=O)OCC)c1 (configuration not stated)	-38	/	3.1	-6	3%
CN(CCOc1ccccc1)C(=S)Nc1ccc(OC(F)F)cc1	/	-1	1.0	/	/
CC(O)c1n(C)c(Cl)c[n+]1C (configuration not stated)	14	-6	-3.0	7	/
COc1ccccc1S(=O)(=O)Cc1ccc(C(=O)NCc2cccs2)o1	-17	-9	-2.1	-4	-14%
CCCCc1c(O)nc(SCCN(C)C)n(-c2ccccc2)c1=O	-27	5	-1.4	10	-2%

Assay outcomes from PubChem.

Some of the compounds tested (hit frequency here may not be typical).
